RE007 growth inh = qHTS Assay for Inhibitors of the HIV-1 protein Vpr. S. pombe RE007 Vpr strain, BacTiter-Glo ATP luminescence, 24 h; control for the full effect not named in the record. Potency, µM (highest dose often 92.2 µM), for inactives: top-dose activity change, negative = less growth. hit rate 0.21% among 360,000. AID 651644, 2012; active = well fitted falling curve with a large enough effect; inconclusive = small, poorly fitted or top-dose-only effect; inactive = no such curve, though single readings can be large or run the other way;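 further: nearly all actives have a fitted effect of over 50% in size; the assay follows cell death caused by Vpr and the record does not say whether a fall means rescue or toxicity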
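Fission yeast RE007 carrying one integrated HIV-1 vpr copy, seeded at OD 0.01 in PMG+AL medium with 23 nL pinned compound. Grown 24 h at 30 degrees; viability read by BacTiter-Glo luminescence after 5 min.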
StopGo reporter = High Throughput Screening for Foot and Mouth Disease Virus Antivirals | human cells with a luciferase reporter of 2A StopGo recoding; control for the full effect not named in the record | Potency, µM (series often up to 57.9 µM), for the others: top-dose signal change, negative = less light | hit rate 1.2% among 410,000 | AID 1159524, 2015; active = well fitted falling curve with a large enough effect; inconclusive = small, poorly fitted or top-dose-only effect; inactive = no such curve, though single readings can be large or run the other way; tested in HEK293T cells; further: nearly all actives have a fitted effect of over 45% in size; luciferase light after 4 h
Numbers without * were called inactive; ? = inconclusive; [ ] = another dose, or the depositor's remark. On the % scale 0 is the no-effect control and ±100 the full control effect; potency means the concentration at half of the fitted maximal effect.

The line under a structure holds: RE007 growth inh, StopGo reporter
> CC1=C(C(=O)N(C(C)C)C(C)C)CC(CC(=O)NC(c2ccccc2)c2ccccc2)C(=O)N1CCC1=CCCCC1 (stereo not given)
 : 2%, ?
> CC(C)C(=O)N1CCC1(C)C(=O)NS(=O)(=O)c1cccs1 (stereo not given)
 : -8%, 0%
> O=C1C2C3C=CC(CC3)C2C(=O)N1c1ccc(Br)cc1 (stereo not given)
 : 5%, -6%
> Cc1cc2c(=O)cc(-c3ccccc3)oc2c(C(=O)O)c1C
 : 7%[18.4 µM], -12%
> CC(C)CCN1C(=O)c2ccccc2C1c1nnnn1C(C)C (stereo not given)
 : 7%, -20%
> CCCCC1Cc2[nH]c(=S)[nH]c(=O)c2C(c2ccc(C(C)C)cc2)O1 (stereo not given)
 : 19%, -19%
> CCOC(=O)C1(C)CCCN1C(=O)c1ccc(F)c(Cl)c1 (stereo not given)
 : 1%[18.4 µM], -4%
> CCOC(=O)C1(C)CCN1C(=O)c1ccc(Cl)cc1Cl (stereo not given)
 : 1%, -8%
> CCOC(=O)C1=C(COC(=O)Cc2ccccc2[N+](=O)[O-])NC(=O)NC1C (stereo not given)
 : -4%, -10%
> COc1ccc(-c2ccc3c(c2)C2CC3CCN2)cc1 (stereo not given)
 : -2%, -12%
> CC1(C(=O)NCc2ccc(Cl)cc2)CCN1C(=O)Cc1cccs1 (stereo not given)
 : 2%, -11%
> N#Cc1ccc(OCC(=O)OCC(=O)N2CCc3ccccc32)cc1
 : 4%, -3%
> C=CCn1c(C)cc(-c2csc(NC(=O)C3CCN(c4ncnc5sc(C)c(C)c45)CC3)n2)c1C
 : -5%, ?
> CCCCn1nnnc1C(c1ccccc1)N1CCN(c2c(Cl)cncc2Cl)CC1 (stereo not given)
 : -20%, -7%
> COCCCN1C(=O)C(CC(=O)NCCN2CCOCC2)CC(C(=O)N2CCCCCC2)=C1C (stereo not given)
 : -3%, -30%
> Cc1cc(C)cc(NC(=S)N2CCC(C(=O)c3ccc(F)cc3)CC2)c1
 : 2%, 23%
> CCCc1c(-c2ccc(F)cc2)ncn1Cc1ccccc1OC
 : ?, ?
> CC(C)(C)n1nnnc1C(c1ccnc2ccccc12)N1CCN(C/C=C/c2ccccc2)CC1 (stereo not given)
 : -28%, -15%
> COc1ccc(CN2C(=O)C(CC(=O)NCCCCc3ccccc3)CC(C(=O)N(C)C)=C2C)cc1 (stereo not given)
 : -5%, -23%
> NC(=O)c1ccc(NCCc2cccs2)cc1
 : -7%, 20%
> COc1cc2c3c(c1OC)C(=O)CC3CCCC2 (stereo not given)
 : -10%, -1%
> CCOC1CCCc2oc(-c3ccc(N(C)C)cc3)c(C(=O)OC)c21 (stereo not given)
 : -15%, 5%
> CCN(C(=O)Nc1cccc2ccccc12)c1ccccc1
 : -26%, -16%
> COc1cc(CN2CCC(C(=O)NC(c3ccc(-c4ccccc4)cc3)c3cnccn3)CC2)cc(OC)c1 (stereo not given)
 : -15%[18.4 µM], ?
> C#C[C@]1(O)CC[C@H]2[C@@H]3CCC4=Cc5nc6nc7ccccc7n6cc5C[C@]4(C)[C@H]3CC[C@@]21C
 : -1%[18.4 µM], 14µM*
> O=C(Nc1ccc(C(O)c2ccccc2)cc1)[C@H]1C[C@H](O)[C@@H](CO)O1 (stereo not given in full)
 : 1%, -18%
> C[C@H](CO)N1C[C@H](C)[C@H](CN(C)Cc2cccc(O)c2)OCc2ccccc2-c2c(n(C)c3ccccc23)C1=O
 : 2%, -25%
> COC(=O)C1=C[C@@H](C(=O)OC)[C@@H]2C3=C(C(=O)[C@]2(CC(C)C)NC(=O)c2ccccc2)[C@H](C)n2c(=O)n(-c4ccccc4)c(=O)n2[C@@H]3C1
 : -5%, -19%
> CC1(C(=O)Nc2cnc3ccccc3c2)CCN1CCc1ccccc1 (stereo not given)
 : 8%[18.4 µM], -28%
> CC1(Cc2ccccc2Cl)C(=O)Nc2ccc(OC(F)(F)F)cc21 (stereo not given)
 : ?, -21%

Quoted from the entries so far for reference:
The line under a structure holds: RE007 growth inh, StopGo reporter
> CC(C)CCN1C(=O)c2ccccc2C1c1nnnn1C(C)C (stereo not given)
 : 7%, -20%
> CCCCC1Cc2[nH]c(=S)[nH]c(=O)c2C(c2ccc(C(C)C)cc2)O1 (stereo not given)
 : 19%, -19%
> CCOC(=O)C1(C)CCCN1C(=O)c1ccc(F)c(Cl)c1 (stereo not given)
 : 1%[18.4 µM], -4%
> CCOC(=O)C1(C)CCN1C(=O)c1ccc(Cl)cc1Cl (stereo not given)
 : 1%, -8%
> CCOC(=O)C1=C(COC(=O)Cc2ccccc2[N+](=O)[O-])NC(=O)NC1C (stereo not given)
 : -4%, -10%

New compounds follow:
The line under a structure holds: RE007 growth inh, StopGo reporter
> O=S(=O)(O)Sc1ccccc1
 : -9%, -12%
> COc1ccc(NC(=O)c2cc(C3CCCCN3C(=O)OCc3ccccc3)on2)c(C)c1 (stereo not given)
 : 18%[18.4 µM], 1%
> CCCCN1C[C@H](C)[C@@H](CC(=O)Nc2ccc(OC)cc2)C1=O
 : -19%, 4%
> CCOC(=O)[C@]12CCC=C1N(Cc1cccc3ccccc13)C(=O)[C@H](CC(=O)N1CCSCC1)C2
 : -17%, -14%
> CC1=CC(=O)Nc2ncccc2O1
 : -29%, -21%
> COc1ccc(CC(N)c2csc(NC(=O)c3ccc(F)cc3)n2)cc1 (stereo not given)
 : 25%, ?
> Cc1cc(Br)cn2c(Cc3ccsc3)c(-c3ccc(F)cc3)nc12
 : -7%, -17%
> C[C@@H]1CN([C@@H](C)CO)C(=O)CCCn2nncc2CO[C@@H]1CN(C)C(=O)c1ccc(N2CCN(C)CC2)cc1
 : 18%, -16%
> CC1(C(=O)Nc2cccc(C(F)(F)F)c2)Cc2c(-c3ccccc3)ccnc2O1 (stereo not given)
 : -1%, -18%
> CCN1CCN(S(=O)(=O)c2ccc(Cl)c(C(=O)N(CCc3ccccc3)Cc3ccccc3)c2)CC1
 : -18%, -23%
> O=C(NNC(=S)Nc1cccc(C(F)(F)F)c1)c1ccncc1
 : -2%, 20%
> O=C(CCCN1C(=O)c2cccc3cccc(c23)C1=O)OCC(=O)N1CCCCC1
 : 6%, -25%
> O=C(NC(c1ccc(Cl)cc1)c1cnccn1)C1CCN(Cc2ccc(Cl)cc2)CC1 (stereo not given)
 : 2%, -17%
> COc1cccc(CNC(=O)[C@@H]2CCCN2C(=O)[C@@H]2CCCN2C(=O)c2cccc3ccccc23)c1
 : 5%, -15%
> Cc1ccc(C(NC(=O)C2CCN(CCOc3ccc(Cl)cc3Cl)CC2)c2ccccn2)cc1 (stereo not given)
 : 4%, -14%
> COc1ccc(/C=C2\SC(=S)N(CCC(=O)N3CCOCC3)C2=O)cc1OC
 : 2%, 6%
> O=c1[nH]nc(Sc2ccccc2)c(=S)[nH]1
 : 12%, -9%
> CC(C)C[C@@H](COCc1cccc(C(F)(F)F)c1)N1CCN(C(=O)c2ccc(C(F)(F)F)cc2)CCC1=O
 : 8%, -28%
> CCOC(=O)C1=CCN(S(=O)(=O)c2ccc(C)cc2)C1c1ccc(Cl)c(Cl)c1 (stereo not given)
 : 3%, 0%
> O=C(Nc1ccc2c(c1)OCO2)c1ccc2c(c1)S(=O)(=O)c1ccccc1C2=O
 : 3%, -8%
> CC1(C)NC(=O)C(CCc2ccccc2)NC1=O (stereo not given)
 : 6%, -12%
> CC(=O)Nc1ccc(-c2ccnc3c2CC(C(=O)Nc2ccc(C(C)C)cc2)O3)cc1 (stereo not given)
 : 7%[18.4 µM], -13%
> O=C(O)C1=C[C@H](c2ccc(C(F)(F)F)cc2)C[C@H](OCCCCO)O1
 : 0%, -10%
> COc1ccc(CCC(=O)N2c3ccccc3N=C(c3ccc4c(c3)OCO4)C2C(=O)NCc2ccccc2)cc1 (stereo not given)
 : -10%, 23%
> CNc1ncnc2c1ncn2[C@H]1CN(Cc2ccc3c(c2)OCO3)C[C@@H](CO)O1
 : 4%[18.4 µM], -15%
> Cc1ccc(S(=O)(=O)N2C[C@H]3C(=O)C[C@@H](c4ccc(Cl)cc4)N(S(=O)(=O)c4ccccc4C)[C@H]3C[C@H]2c2ccccc2)cc1
 : 1%, -4%
> CCN(C(=O)CSc1nnc(-c2ccccc2F)n1N)c1c(N)n(Cc2ccccc2)c(=O)[nH]c1=O
 : -3%, -10%
> CC(=O)c1sc(Nc2ccccc2)nc1C
 : ?, 29%
> C=CC[C@H]1C(C(=O)OCC)=CC[C@@H](c2ccccc2)N1S(=O)(=O)c1ccc(C)cc1
 : -3%, -13%
> CC1(Oc2ccccc2-c2ccno2)CCN(Cc2csc3ccccc23)C1 (stereo not given)
 : -20%, ?

A draw from above in order of heavy-atom count, falling:
The line under a structure holds: RE007 growth inh, StopGo reporter
> COc1cccc(CNC(=O)[C@@H]2CCCN2C(=O)[C@@H]2CCCN2C(=O)c2cccc3ccccc23)c1
 : 5%, -15%
> CC(C)(C)n1nnnc1C(c1ccnc2ccccc12)N1CCN(C/C=C/c2ccccc2)CC1 (stereo not given)
 : -28%, -15%
> O=C(NC(c1ccc(Cl)cc1)c1cnccn1)C1CCN(Cc2ccc(Cl)cc2)CC1 (stereo not given)
 : 2%, -17%
> N#Cc1ccc(OCC(=O)OCC(=O)N2CCc3ccccc32)cc1
 : 4%, -3%
> CC1(Cc2ccccc2Cl)C(=O)Nc2ccc(OC(F)(F)F)cc21 (stereo not given)
 : ?, -21%
> COc1ccc(-c2ccc3c(c2)C2CC3CCN2)cc1 (stereo not given)
 : -2%, -12%

More results follow.
The line under a structure holds: RE007 growth inh, StopGo reporter
> O=C(C[C@H]1CC[C@@H]2[C@H](COC[C@@H](O)CN2C(=O)C2CC2)O1)NCc1ccccc1Cl
 : 7%, -2%
> COc1cccc(NC(=O)N(C)C[C@@H]2OCc3cnnn3CCCC(=O)N([C@H](C)CO)C[C@@H]2C)c1
 : 5%, -9%
> CC1=C(C(=O)N(C(C)C)C(C)C)CC(CC(=O)NCCCCc2ccccc2)C(=O)N1CCCN1CCCC1=O (stereo not given)
 : 3%, -17%
> CCc1nc2nc(C)cc(C)n2c1Nc1ccc(OC)cc1
 : -17%, -16%
> COc1ccccc1NC(=O)Nc1nc(C(N)Cc2ccc(C(F)(F)F)cc2)cs1 (stereo not given)
 : 4%, 0%
> CCCCCC(=O)N1C[C@@H](O)[C@H](n2cc(C3CC3)nn2)C[C@@H]1c1ccccc1
 : 2%, 0%
> COC(=O)c1cc(=O)nc(NN=Cc2ccco2)s1
 : -15%[18.4 µM], -15%
> Cn1c(=O)c2cc(NC(=S)NC3CC3)ccc2n1Cc1ccc(F)cc1
 : -6%, -3%
> O=C1NC[C@@H](CCCCN2CCN(CCc3ccccc3)C(=O)C2=O)N(CC2CCCCC2)C1=O
 : -7%, 8%
> CCOC(=O)N(C)c1c(CC)nc2c(OCc3ccc(F)cc3)cccn12
 : -6%[18.4 µM], -17%
> COc1ccc(CCN2C(=O)CCC3=C2CCCC3=O)cc1OC
 : -4%, -25%
> O=C(OCc1ccccc1)N1CCCC2CC1c1ccccc12 (stereo not given)
 : -4%, 16%
> C#CCOCCOCCOCCNc1nc(N2CCOCC2)nc(N2CCN(C(=O)[C@H](C)n3cc(CCC(=O)O)nn3)CC2)n1
 : 7%, -2%
> Cc1ccc(-c2nc(NCCCN(C)C)c3ccccc3n2)cc1
 : -23%, 33%[activator]
> CC1(C(=O)NS(=O)(=O)C2CC2)CCN(C(=O)c2cccc(OC(F)(F)F)c2)C1 (stereo not given)
 : 11%, -5%
> COC(=O)C1=C(c2cc3ccccc3s2)C[C@@H]2CC[C@H]1N2C(=O)N1CCOCC1
 : 10%, ?
> CC1(C(=O)Nc2ccccc2)CCN1C(=O)C1(c2ccccc2)CC1 (stereo not given)
 : -4%, -15%
> COC(=O)[C@H]1C[C@@]2(O)CN(S(=O)(=O)c3ccc(C)cc3)C[C@@]2(OC(=O)NCc2ccco2)C[C@H]1C(=O)OC
 : -2%, -28%
> O=C(NCc1ccccc1)c1ccc(NC(=O)C2CCCCC2)cc1
 : 5%, -14%
> O=C(O)/C(=C\c1ccc2ccccc2c1)c1cccc2ccccc12
 : 4%, -9%
> Cc1ccc(S(=O)(=O)NCC(=O)OCc2csc(CC(=O)Nc3ccccc3C)n2)cc1C
 : -16%, 1%
> C[C@]12CC[C@H](O)C[C@H]1CC[C@@H]1[C@@H]2C[C@@H](O)[C@]2(C)[C@@H](C3=CC(=O)OC3)CC[C@]12O
 : 5%[18.4 µM], ?
> Cc1ccc(NC(=O)c2cc(C(=O)Nc3ccc(C)cc3)n(C)n2)cc1
 : 4%, -16%
> COc1ccc(CN(C)CCCn2ccc(N)nc2=O)cc1OC
 : -8%, -16%
> CCCCN(C(=O)CC1CCCC1)c1c(N)n(Cc2ccccc2)c(=O)[nH]c1=O
 : 7%, 0%
> CCCNC(=O)C1CC(=O)N(c2ccc(OCc3ccccc3)cc2)C1 (stereo not given)
 : -7%, 60%[activator]
> Cc1ccc(NC(=O)C(C)N2CCCc3ccccc32)cc1S(=O)(=O)N1CCOCC1 (stereo not given)
 : 1%, 30%[activator]
> CN(C)c1cccc2c(S(=O)(=O)NC(=O)[C@H]3O[C@@H](n4cnc5c(N)ncnc54)[C@H](O)[C@@H]3O)cccc12
 : 1%, -13%
> FC(F)(F)c1cnc(NNC(=S)Nc2ccccc2)c(Cl)c1
 : 18%, ?
> O=S(=O)(NCCc1ccc(F)cc1)c1cc(C(F)(F)F)ccc1Br
 : 1%, 90%[activator]

An excerpt (hit frequency here may not be typical).
